VACV Venus inh – vaccinia inhibition (Venus reporter) | Vaccinia virus Venus reporter expression, fluorescence | Potency, µM (top dose mostly 36.5 µM), without a hit: at the top dose activity change, negative = inhibition, actives largely listed as inhibitors | 330,000 tested, 0.46% active | AID 720580; active means well fitted inhibition curve with a large enough effect; inconclusive means small, poorly fitted or top-dose-only effect; inactive means no such curve, though single readings can be large or run the other way; tested in A549 cells; note: nearly all actives have a fitted effect of over 30% in size; inactives centre near -10
VACV mCherry inh – inhibitors of vaccinia virus infection (mCherry reporter signal). 310,000 tested, 0.63% active. AID 720579. Potency, µM (top dose mostly 36.5 µM), for inactives: at the highest dose activity change, negative = inhibition, most hits filed as inhibitors. Vaccinia virus mCherry reporter infection, fluorescence; about a quarter of the inactives have no number; active = well fitted inhibition curve with a large enough effect; inconclusive = small, poorly fitted or top-dose-only effect; inactive = no such curve, though single readings can be large or run the other way; tested in A549 cells; note: nearly all actives have a fitted effect of over 35% in size; inactives centre near -10
Active calls of the source: *; i = inactive; ? = inconclusive; . = no result given; & = joins results of further samples; [ ] = remark or other dose. % is set by controls: 0 for no effect and ±100 for the full control effect; potency is the fitted concentration of half-maximal effect. Compounds as they come (roughly 0.87% active in at least one column).

SMILES	VACV Venus inh	VACV mCherry inh
CC12CCC(O)CC1CCC1C2CCC2(C)C(C3=CC(=O)OC3)C(O)CC12O (stereo unspecified)	1.8µM*	1.3µM*
CC1CN(S(=O)(=O)c2cccc(C(=O)OCC(=O)N3CCCCCC3)c2)CC(C)O1 (stereo unspecified)	6%	i
COC(=O)c1ccc(Nc2cc(C)nc3ccccc23)cc1	?	-4%
COc1ccc2c(c1OC)C(=O)N1C2SC[C@H]1C(=O)NC1CCCCC1 (stereo partly specified)	0%	-9%
CCOCCCNC(=O)COc1ccc(OC)cc1	-6%	-10%
Cc1cc(C)c(S(=O)(=O)N2CCOC2CNC(=O)C(=O)NCCc2ccc(S(N)(=O)=O)cc2)c(C)c1 (stereo unspecified)	-6%	4%
O=S(=O)(c1ccc(Br)cc1)N1CCCN(Cc2cccc(F)c2)CC1	-24%	-22%
CN(CC(=O)Nc1cccc(F)c1)C(=O)c1ccccc1-n1cnnn1	-19%	-9%
CC(C)(C)OC(=O)NC1CONC1=O (stereo unspecified)	-16%	-6%
N#C/C(=C\c1c(N2CCC(C(N)=O)CC2)nc2ccccn2c1=O)S(=O)(=O)c1ccccc1	-9%	-11%
Fc1ccc(C2NC(=S)NC3=C2N2CCC3CC2)cc1 (stereo unspecified)	-12%	i
CCSc1ncc(/C=N/Nc2ccc(Cl)cc2)n1C	-28%	.
COc1cc2c(cc1NC(=O)C(C)OC(=O)C1CC(=O)N(Cc3ccco3)C1)oc1ccccc12 (stereo unspecified)	-28%	-4%[1.46 µM]
COc1ccc(C2=NN(C(=O)COc3ncnc4ccccc34)C(c3ccco3)C2)cc1 (stereo unspecified)	-17%	-12%
CN(CCOc1ccccc1)C(=O)c1ccc2c(=O)n3c(nc2c1)CCC3	-10%	-17%
CC1CCc2c(sc3ncn4c(SCC(=O)NCc5ccco5)nnc4c23)C1 (stereo unspecified)	-8%	-14%
Cc1ccc2c(/C=C/c3ccc(N(C)C)cc3)ccnc2c1	25%	14%
CCn1c(SCC(=O)NC(=O)NCc2ccco2)nnc1-c1cccs1	-9%	-16%
CC(=O)c1ccc(Nc2nc3c(S(=O)(=O)c4ccccc4)nnn3c3ccc(Cl)cc23)cc1	?	?
O=C1CCc2cc(S(=O)(=O)NCc3ccc(F)cc3)cc3c2N1CC3	-12%&1%	-15%&-1%
O=C(CC1Oc2ccccc2NC1=O)NCCCN1CCOCC1 (stereo unspecified)	6%	18%
COc1cccc(CN2CC(C(=O)NCCCc3ccncc3)CCC2=O)c1 (stereo unspecified)	-19%	-7%
O=C1C=CC(=O)N1CCNc1ncc(C(F)(F)F)cc1Cl	-28%	?
CC(C)(C)C(=O)CN1CCN(C2c3ccccc3-c3ccccc32)CC1	-6%	-7%
COc1cc(/C=N/S(=O)(=O)CCc2ccccc2)cc(OC)c1O	-11%	i
COc1ccc(-c2cc(-c3ccccc3)nc(SCC(=O)Nc3ncc(C)s3)c2C#N)cc1	-21%	-16%
CC(=O)c1sc(Nc2ccc(Oc3ccccc3)cc2)nc1C	-7%	i
Cc1nc2c(C(=O)NCc3ccccc3Cl)cnn2c(C)c1Cc1ccccc1	-16%	-9%
O=C(Cn1cnc2c(OCc3ccccc3)ncnc21)NCc1nc2ccccc2[nH]1	-25%	i
CCOC(=O)N1CCN(C(=O)COC(=O)C2CCN(S(=O)(=O)c3ccc(C)c(C)c3)CC2)CC1	-16%	-17%
O=C(NCC(c1cccnc1)N1CCN(c2ccccc2)CC1)c1ccco1 (stereo unspecified)	-22%	-2%
CC1(C)CC(=O)C2=C(C1)N(c1ccccc1)C(=O)C2(O)C(F)(F)F (stereo unspecified)	-10%	i
CC(C)(C)OC(=O)N1CCC(c2c(C(=O)N3CCN(c4ccc(Cl)cc4)CC3)cnn2-c2ccc(F)cc2F)CC1	?	-29%
Cc1oc2cc(O)ccc2c(=O)c1Oc1ccccc1	-9%	-18%
CC(C)(C)NC(=O)COC(=O)c1ccccc1NC(=O)c1ccco1	-16%	-6%
CCCCn1c(N)c(N(CC(C)C)C(=O)CCCn2c(=O)oc3ccccc32)c(=O)[nH]c1=O	3%	0%
CCc1ccc(S(=O)(=O)c2nnn3c2nc(Nc2cc(OC)ccc2OC)c2sccc23)cc1	-13%	-1%
O=C1NC[C@H](CCCCN2C[C@H](Cc3ccccc3)N(CCc3ccc(O)cc3)C(=O)C2=O)N(CCC2CCCCC2)C1=O	6%	i
ClCCN(CCCl)c1ccc(C=Nc2ccc(/C=C/c3ccncc3)cc2)cc1	4%	i
Cc1cccc(OCc2ccc(-c3nc(C#N)c(N4CCN(c5ccccc5)CC4)o3)o2)c1	-10%	-18%
Cc1c(C(=O)OCC(=O)N2CCCC(C)C2)oc2ccccc12 (stereo unspecified)	-4%	1%
Cc1ccc(NC(=O)CN(C)C(=S)NC2CC2)cc1	-3%	1%
Cc1cnc(C(=O)OCC(=O)Nc2ccc(Br)cc2F)cn1	-6%	i
CCOC(=O)C1(CC2CCCCO2)CCN(C(=O)Nc2ccc3c(c2)OCO3)CC1 (stereo unspecified)	-1%	i
COc1cccc(CN(C)S(=O)(=O)c2c(C)noc2C)c1OC	-6%	-5%
NC(=O)C1CCN(C(=O)c2ccc(OCC(=O)Nc3cccc(C(F)(F)F)c3)cc2)CC1	-12%	i
COc1ccc(-c2c3c(nc4sc(C(=O)Nc5cccc(OC)c5)c(N)c24)CC(C)(C)CC3=O)cc1	-8%	-17%
CCOC(=O)NN1C(=O)c2ccccc2NC1c1ccccc1 (stereo unspecified)	-13%	i
CCOc1cccc(NC(=O)C2CC(=O)N(C)C(=Nc3ccc(F)cc3)S2)c1 (stereo unspecified)	-3%	i
N#Cc1ccc(CSc2nc3c(c(=O)[nH]2)CCC3)cc1	4%	-3%
CC(C)OC(=O)CSc1nnc(CNc2ccc(Cl)cc2)n1Cc1ccccc1	-1%	-12%
Cc1cc(NC(=O)COC(=O)C2CCN(C(=O)c3ccc(Cl)cc3)CC2)no1	-19%	-7%
O=C(O)CCCNS(=O)(=O)c1ccc(NCc2ccccc2)c(C(=O)O)c1	-16%	.
CCOC(=O)C1CCN(C(=O)c2ccccc2)c2scc(-c3ccccc3)c2C1=O (stereo unspecified)	-22%	-3%
CN(C)c1ncnc2c1ncn2C1CCCCO1 (stereo unspecified)	-3%	-14%
Cc1csc2nc(CCNS(=O)(=O)c3ccc(F)cc3)cn12	-5%	-14%
CN1CCN(c2ccc(-c3cccc(NC(=O)COc4ccc(Cl)cc4Cl)c3)nn2)CC1	-5%	-21%
CN(CC(=O)Nc1ccccc1Br)C(=O)c1cc2c(s1)CCCCC2	-4%	-11%
CN(C)CCCN(Cc1cc2cc3c(cc2[nH]c1=O)OCO3)C(=S)Nc1ccccc1	6%	14%
OC[C@H]1O[C@@H](c2nc(-c3nc(-c4ccc(F)cc4)no3)cs2)[C@H](O)[C@@H](O)[C@H]1O	-9%	30%

Next section
SMILES	VACV Venus inh	VACV mCherry inh
C=CCOc1ccc(C(=O)/C=C2/C(=O)Nc3ccccc32)cc1	-22%	-18%
Cc1cc(=O)n(CC(=O)N2CCN(c3ccccc3F)CC2)c2c1c(C)nn2C	-2%[7.34 µM]	-6%[7.34 µM]
Cc1ccc(C(C(=O)Nc2ccc3c(c2)OCO3)N(C)C(=O)/C=C\c2ccc3c(c2)OCO3)cc1 (stereo unspecified)	-14%	-25%
O=C(CSc1nc(-c2ccccc2)c2ccccc2n1)Nc1ccc(F)cc1	-10%	-11%
CN(C(=S)NC(=O)Cc1ccccc1)c1ccccc1	-9%	-3%
Cc1ccc(S(=O)(=O)NCCSc2nnnn2-c2ccccc2)cc1	-14%&-29%	-14%&-2%
CCc1nnc(SCC(=O)Nc2ccc3c(c2)OCO3)o1	1%	.
S=c1[nH]nc(-c2ccccc2)c2ccccc12	1%	-4%
Cc1cc(NC(=O)c2cc(-c3ccc(Cl)cc3)on2)n(-c2ccccc2)n1	-13%	-6%
CCOC(=O)c1c(NC(C)=O)sc2c1CCN(Cc1ccccc1)C2	-16%	?
Cc1ccnc(Nc2nc(-c3ccc(O)cc3)cs2)c1	-13%	i
COc1cc2c(cc1OC)[C@@H](NC(=O)CCc1ccccc1)[C@H](O)C2	6%	-14%
c1csc(-c2nc(-c3ccncc3)no2)c1	-3%	-14%
NC(Cc1ccc(C(F)(F)F)cc1)c1csc(NC(=O)Nc2ccccc2)n1 (stereo unspecified)	10µM*	?
O=C(CSC(=S)N1CCCC1)N1CCN(S(=O)(=O)c2cccc([N+](=O)[O-])c2)CC1	-21%	i
CC1CCN(CC(=O)Nc2ccccc2Sc2ccccc2)CC1	-25%	-8%
O=C(CN1CCN(CCO)CC1)Nc1ccccc1	-5%	-16%
C=CCNC(=O)C(C)N1c2cccc3cccc(c23)S1(=O)=O (stereo unspecified)	-1%	i
CN(Cc1ccccc1)C(=O)c1nc[nH]c1C(=O)N1CCN(c2ccccc2)CC1	-6%	i
CC(C)NC(=O)N(C)C[C@H]1Oc2ncc(Br)cc2C(=O)N([C@H](C)CO)C[C@@H]1C	-5%	-1%
C/C(N)=C(/C#N)C(=O)COC(=O)c1oc2ccccc2c1COC(C)C	-9%	i
COc1ccc(Cn2c(C)nc3oc4cc(OC)ccc4c(=O)c3c2=O)cc1	-6%	-12%
COc1ccc(-c2cc(=O)c3c(O)c(OC)c(O)cc3o2)cc1	-25%	?
CCc1cccc(NC(=O)c2cccc(S(=O)(=O)N3CCN(C)CC3)c2)c1	-4%	5%
COc1ccc2c(c1)-c1nc(NC(=O)c3ccccc3F)sc1CC2	-18%	-26%
COc1cc(C(CC(=O)O)n2cnnn2)ccc1OC(C)C (stereo unspecified)	-9%	i
CC(=O)c1sc(NC(=O)CN2C(=O)NC3(CCCC3)C2=O)nc1-c1ccccc1	-9%	i
COc1cc(C=Nc2ccccc2C(=O)Nc2ccccc2)cc(OC)c1OC	-15%	-15%
COc1ccc(N2C(=O)CC(N3CCOCC3)C2=O)cc1 (stereo unspecified)	12%	.
Cc1ccc2nc(-c3ccccc3)c(Cc3ccccn3)n2c1	-5%	15%
C/C(=N\NS(=O)(=O)c1ccccc1)c1ccccc1	6%	-1%
CC(C)(C)[C@@H]1CCC(=O)N(CC[C@H](Sc2ccccc2)c2ccccc2)CC1	?	-7%&-5%
COc1ccc(C(=O)CNc2ccc3ccccc3c2)cc1	0%	-1%
CC1CCN(C(=O)Nc2ccc3nc(-c4ccco4)c(-c4ccco4)nc3c2)CC1	7%	-6%
CC12CCC(C(=O)NNc3ccc([N+](=O)[O-])cc3)(OC1=O)C2(C)C (stereo unspecified)	10%	i
O=C(NC1CCCCC1)C(c1cccs1)N(C(=O)C(F)(F)F)c1ccccc1 (stereo unspecified)	-11%	-13%
O=C(CC1(O)C(=O)N(CCc2ccccc2)c2ccccc21)c1ccccn1 (stereo unspecified)	-3%	-3%
CCc1ccc(C(=O)c2cn(CC(=O)NC3CCCCC3)c3nc(C)ccc3c2=O)cc1	-13%	-7%
COc1ccc(-c2noc(N3CCC(C(=O)N(C)c4ccccc4)CC3)n2)cc1	?	-8%
CCCCCNC(=O)C1C(=O)Nc2ccccc2C(=O)N1c1c(C)cccc1C (stereo unspecified)	-5%	-8%
COc1ccc(C2C(C#N)=C(/N=C/N3CCN(C)CC3)OC3=C2C(=O)CC(C)(C)C3)cc1 (stereo unspecified)	-24%	.
O=C(c1cc2ccccc2o1)N1CCN(c2ccccn2)CC1	5%	-12%
CC(C)NC(=O)c1ccccc1NC(=O)/C=C/c1cccc([N+](=O)[O-])c1	-9%	-15%
CC(=O)N(C)c1ccc(NC(=O)COc2ccc(Br)cc2C)cc1	-27%	-25%
O=C(COC(=O)Cc1ccccc1[N+](=O)[O-])NC1CCCC1	2%	i

Record cards (already shown). Screens in order: VACV Venus inh | VACV mCherry inh
CCCCCNC(=O)C1C(=O)Nc2ccccc2C(=O)N1c1c(C)cccc1C (stereo unspecified) across the screens: -5% | -8%
CC(=O)N(C)c1ccc(NC(=O)COc2ccc(Br)cc2C)cc1 across the screens: -27% | -25%
CC12CCC(C(=O)NNc3ccc([N+](=O)[O-])cc3)(OC1=O)C2(C)C (stereo unspecified) across the screens: 10% | i
CC(C)NC(=O)c1ccccc1NC(=O)/C=C/c1cccc([N+](=O)[O-])c1 across the screens: -9% | -15%
COc1ccc(C(=O)CNc2ccc3ccccc3c2)cc1 across the screens: 0% | -1%

Further results.
SMILES	VACV Venus inh	VACV mCherry inh
CCCCNC(=O)CSc1nc2ccccc2nc1Cc1ccccc1	-2%	-14%
Cc1cccc(Cn2c(=O)n(Cc3ccccc3)c(=O)c3oc4ccccc4c32)c1	-21%	-18%
CCSc1nnc(NC(=O)CSc2nnc(-c3c[nH]c4ccccc34)n2CC)s1	-5%	-5%
NS(=O)(=O)c1ccc(CNC(=S)NC2CCCC2)cc1	1%	-9%

Screening results: PubChem, National Center for Advancing Translational Sciences (NCATS)
